Assay outcomes deposited in PubChem by National Center for Advancing Translational Sciences (NCATS).
Rango complex inh: qHTS Assay for Inhibitors of Rango (Ran-regulated importin-beta cargo) - Importin beta complex formation; Importin subunit beta-1 (Homo sapiens), Q14974; Rango CFP/YFP FRET sensor + importin beta, 45 min; Potency, µM (top dose mostly 92.2 µM), inactives show at the highest dose inhibition of complex formation; 340,000 compounds, 0.031% hits; AID 540263, 2011; active = rising FRET ratio curve, often small or poorly fitted; inconclusive = mostly compound fluorescence or quenching in the first reads; inactive = flat curves in all reads;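 also: potency is read from the fitted curve at half-maximal effect; 0% = DMSO wells and 100% = buffer wells lacking importin beta; nearly all actives have a fitted effect of over 15% in size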
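FRET biosensor Rango (snurportin 1 IBB between N-terminal EYFP and C-terminal Cerulean), 50 nM in PBS/1 mM DTT/0.02% Tween-20/0.1% BSA, preincubated 5 min RT with compound; 0.125 microM importin beta added, 45 min RT, CFP/YFP FRET ratio read.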
miR-21 FLuc: qHTS Assay for Modulators of miRNAs and/orActivators of miR-21; 340,000 tested, under 10 active; HeLa miR-21 FLuc reporter, luciferase, 48 h; AID 2288, 2010; Potency, µM (highest dose often 38.3 µM), without a hit: top-dose reporter change, positive = more light; active = well fitted rising curve with a large enough effect; inconclusive = small, poorly fitted or top-dose-only effect; inactive = no such curve, though single readings can be large or run the other way;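 also: % of control where 0% means no effect; miR-21 action dims this reporter so a rising signal means less miR-21 action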
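HeLa miR-21-FLuc reporter line, endogenous miR-21; 2000 cells/well in DMEM/10% FBS; compound titration up to ~40uM final, 48 h, 37 degree Celsius; luciferase detection reagent, 15 min lysis, CCD luminescence.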
Rango dissoc inh: qHTS Assay for Inhibitors of RanGTP induced Rango (Ran-regulated importin-beta cargo) - Importin beta complex dissociation; 340,000 compounds, 0.071% hits; Potency, µM (highest dose often 46.1 µM), without a hit: at the top dose activity change, negative = inhibition; Biochemical FRET Rango-importin beta, RanGTP-induced dissociation; Snurportin-1 (Homo sapiens) + GTP-binding nuclear protein Ran (Homo sapiens) + Importin …; AID 540253, 2011; active means falling FRET ratio curve, often poorly fitted, with flat reads before Ran was added; inconclusive means other falling curves, or compound fluorescence or quenching; inactive means flat or rising ratio curve;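 also: potency is read from the fitted curve at half-maximal effect; % of control where 0% means no effect; nearly all actives have a fitted effect of over 45% in size; -100% = wells without RanGTP and RCC1; the record marks most hits as doubtful in a second field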
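Compounds sat 5 min at room temperature with 0.1 uM Rango biosensor plus 0.25 uM importin beta, then FRET pre-read. RanGTP-RCC1 (0.6 uM Ran, 2mM GTP, 0.2 uM RCC1) added for 45 min, and the CFP/YFP post-read measured blocked complex dissociation.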
GLA inh pH 4.5: qHTS Assay for Inhibitors of Human alpha-Galactosidase at pH 4.5. activity change, negative = inhibition, % at 105 µM. Alpha-galactosidase A (Homo sapiens), P06280. purified enzyme, 4-MU-alpha-Gal fluorescence, pH 4.5. 230,000 tested, under 10 active; inconclusive = small, poorly fitted or top-dose-only inhibition, or a rising curve; inactive = flat fitted curve, though single readings scatter; no compound was filed as active;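 also: 0% = full activity with enzyme and -100% = basal without enzyme; dose as in the result columns while the protocol names 77 µM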
Target sequence (P06280 whole entry, looked up): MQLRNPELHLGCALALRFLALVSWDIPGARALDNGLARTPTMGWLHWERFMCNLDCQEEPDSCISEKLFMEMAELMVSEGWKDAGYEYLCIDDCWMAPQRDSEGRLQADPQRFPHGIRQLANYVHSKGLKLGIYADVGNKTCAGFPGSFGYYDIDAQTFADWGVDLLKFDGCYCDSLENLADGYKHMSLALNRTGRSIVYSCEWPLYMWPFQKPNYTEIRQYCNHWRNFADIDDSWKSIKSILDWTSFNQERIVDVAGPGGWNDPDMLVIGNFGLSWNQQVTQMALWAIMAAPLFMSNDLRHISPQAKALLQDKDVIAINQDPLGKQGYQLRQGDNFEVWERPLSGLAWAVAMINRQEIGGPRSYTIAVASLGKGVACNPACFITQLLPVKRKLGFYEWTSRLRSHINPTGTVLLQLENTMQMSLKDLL
Numbers without * were called inactive; ? = inconclusive; . = no result given. Only part of the results is shown; count on the stated rates, not on these rows.

Rango complex inh,smiles,miR-21 FLuc,Rango dissoc inh,GLA inh pH 4.5
1.3%,O=C(CSc1ncn(-c2ccccc2)n1)Nc1nncs1,-2.8%,5.6%,5.1
?,c1ccc(Nc2nc3ccccc3n3nnnc23)cc1,-23.0%,20.6µM*,3.2
-0.6%,COC(=O)c1ccc(/C=C2\SC(=S)N(CCCC(=O)N3CCOCC3)C2=O)cc1,.,-10.6%,.
?,N#CCSc1ccc2nc(-c3ccccc3)cn2n1,-57.6%,-22.3%,.
0.2%,CCOc1cc(Br)c(CN2C(=O)NC3(CCCCCC3)C2=O)cc1OCC,18.2%,37.4%,.
-0.7%,C=C1C[C@@]23CCC4[C@@](C)(CCC[C@@]4(C)C(=O)O)C2CC[C@]1(O)C3 (stereo partly specified),.,24.7%,.
0.0%,CCN(CC(=O)Nc1ccc(NC(C)=O)cc1)C(=O)c1cc2c(s1)CCCCC2,.,34.2%,.
1.0%,CCCN(CCC)C(=O)C1CC(=O)OC12CCCCC2 (stereo unspecified),0.4%,9.8%,4.8
-4.4%,OC(CN1CCCC(C(F)(F)F)C1)c1ccccc1 (stereo unspecified),-3.0%,-7.4%,.
-1.1%,CSCCC(NC(=O)c1cccc(C)c1)C(=O)NCc1cccs1 (stereo unspecified),.,16.5%,.
?,OCC[C@H]1C[C@@H](O)[C@H](O)[C@@]2(OCCc3ccccc32)O1,.,10.6%,.
1.5%,CCc1cccc(C)c1NC(=S)N(CCCN1CCOCC1)Cc1cccnc1,-0.9%,-2.5%,10.3
-0.7%,CCOC(=O)c1c(NC(=O)COC(=O)/C=C/c2ccco2)sc2c1CC(C)(C)NC2(C)C,.,19.2%,.
-1.9%,Cc1onc(-c2ccccc2Cl)c1C(=O)Nc1ccc(-n2nncc2C(C)(C)C)cc1,-3.7%,5.6%,-2.8
0.3%,CCOc1cc(/C=N\Nc2nc(-c3ccc(C)cc3)c(NC(C)=O)s2)ccc1O,5.5%,0.8%,-9.5
-0.4%,CN(CCO)c1ccc([N+](=O)[O-])cc1C(=O)O,-2.5%,-17.0%,-17.3
-3.5%,CCOn1c(SCC)nc2ccccc2c1=O,-2.2%,-0.3%,-5.3
-2.2%,COc1ccc(NS(=O)(=O)c2cc(C)ccc2NC(=O)c2cc(C)oc2C)cc1,20.9%,-8.3%,-10.4
?,O=C(O)CCC(=O)N1CCc2cc(S(=O)(=O)N3CCN(c4ccc(F)cc4)CC3)ccc21,-0.7%,-19.8%,-2.0
-0.6%,CCC(C)(C(=O)NC1CCCCC1)N(C(=O)CNC(=O)c1ccccc1)c1c(C)n(C)n(-c2ccccc2)c1=O (stereo unspecified),-0.7%,12.2%,4.7
4.6%,C/C=C(\C)c1nnc(NC(=O)C(C)C)s1,-18.7%,7.8%,2.7
4.7%,CCOC(=O)c1c(S(=O)(=O)NCC(=O)N2CCN(c3cccc(OC)c3)CC2)c(C)n(C)c1C,-0.7%,7.5%,.
0.0%,COc1ccc(C)cc1NC(=O)CSc1nnc(-c2ccco2)n1N,2.0%,-0.1%,-2.7
?,COC(=O)C(C)Sc1nc2ccsc2c(=O)n1Cc1ccccc1 (stereo unspecified),3.0%,3.3%,.
-0.1%,O=C(CSc1ncccn1)NC(=O)Cc1ccccc1,.,-11.0%,.
0.1%,Cc1ccc(N(CC(=O)Nc2ccc(F)cc2)S(=O)(=O)N2CCCC2)cc1,-7.2%,0.5%,2.2
-0.5%,CC1CCc2sc(C(=O)NNS(=O)(=O)c3ccc(F)c(F)c3F)cc2C1 (stereo unspecified),.,-13.8%,.
1.4%,O=S(=O)(NCc1ccccc1)c1ccc(S(=O)(=O)N2CCCCC2)cc1,0.2%,10.2%,1.4
0.8%,CCOC(=O)C1CCN(C(=O)c2ccccc2N(C)S(C)(=O)=O)CC1,-4.6%,0.5%,-25.6
-1.0%,COc1ccc(N2CCN(c3ccc([N+](=O)[O-])cc3Cl)CC2)cc1,-14.3%,-3.4%,3.2

Of the compounds above, these have a Cl atom:
Rango complex inh,smiles,miR-21 FLuc,Rango dissoc inh,GLA inh pH 4.5
-1.9%,Cc1onc(-c2ccccc2Cl)c1C(=O)Nc1ccc(-n2nncc2C(C)(C)C)cc1,-3.7%,5.6%,-2.8
-1.0%,COc1ccc(N2CCN(c3ccc([N+](=O)[O-])cc3Cl)CC2)cc1,-14.3%,-3.4%,3.2

Next part.
Rango complex inh,smiles,miR-21 FLuc,Rango dissoc inh,GLA inh pH 4.5
3.4%,CCN(Cc1ccc(N(C)C)cc1)C(C)C(=O)Nc1ccc(S(=O)(=O)N2CCCC2)cc1 (stereo unspecified),.,5.4%,.
-2.5%,O=C(COc1ccc2c3c(c(=O)oc2c1)CCC3)c1ccc2c(c1)OCO2,-3.4%,?,5.2
0.6%,CCc1ccc(-c2nc(CS(=O)CC(=O)NCc3ccc4c(c3)OCO4)c(C)o2)cc1 (stereo unspecified),-1.4%,-0.1%,.
0.5%,Cc1ccc(S(=O)(=O)N(CC(=O)NCc2ccncc2)Cc2ccccc2F)cc1,-1.1%,-17.5%,.
-3.1%,CC(=O)c1c(C)[nH]c(C(=O)COC(=O)c2cccs2)c1C,.,12.1%,.
0.3%,COc1cc(C2c3c(-c4cc(Cl)c(C)cc4O)n[nH]c3C(=O)N2Cc2cccnc2)ccc1O (stereo unspecified),-29.3%,-7.3%,-0.1
-0.5%,CC(=O)Nc1cccc(NS(=O)(=O)c2c(C)noc2C)c1,.,-2.2%,.
-4.2%,C#CCOC(=O)c1ccccc1C(=O)OCC#C,-3.5%,6.3%,5.7
0.3%,O=C(CCOc1ccccc1)Nc1cccc([N+](=O)[O-])c1,-23.0%,0.0%,0.2
1.5%,CCN(CC)S(=O)(=O)c1cccc(C(=O)N/N=C/c2cc(OC)c(O)c(OC)c2)c1,1.4%,20.9%,0.3
-1.8%,O=C(c1ccc2ccccc2n1)N1CCN(c2ccccn2)CC1,-6.2%,5.6%,.
0.2%,COc1ccc(OCC(=O)NCCCNC(=O)COc2ccc(OC)cc2)cc1,.,-2.2%,.
0.8%,Cn1c(=O)[nH]c(=O)c2c1nc(Br)n2CCC(=O)c1ccccc1,-0.8%,-8.7%,-8.0
-0.4%,CC1CC2=C(C(=O)O1)C(c1ccc(Cl)cc1)Nc1ccccc1N2 (stereo unspecified),-4.5%,16.0%,-6.2
1.1%,CC(Sc1nncn1C)C(=O)Nc1ccc(Cl)cn1 (stereo unspecified),-6.6%,-9.3%,-5.2
0.4%,O=C(Nc1ncccn1)c1cc(-c2ccc(F)cc2)nc2ccccc12,3.9%,0.5%,3.8
-0.5%,C=CCn1c(C2CCCCC2)n[nH]c1=S,-0.7%,-9.9%,-1.1
0.3%,Cc1ccc(OCc2n[nH]c(=S)n2-c2ccc(Br)cc2)cc1,-1.1%,11.0%,.
-4.7%,CCOC(=O)C1(CC2CC2)CCN(Cc2ccc(OC)cc2F)CC1,-1.1%,1.4%,8.0
-0.4%,O=C(Cc1ccc(-n2c(=O)c3ccccc3n(CC(=O)Nc3ccc(F)cc3F)c2=O)cc1)NCc1ccco1,-0.9%,0.4%,-0.4
-0.3%,Cc1nn(-c2ccccc2)c(C)c1-c1ccccc1O,-1.9%,0.8%,.
-2.5%,O=C(NNC(=O)C1C2C=CC(C2)C1C(=O)O)c1ccccc1 (stereo unspecified),-57.4%,-4.8%,.
-0.2%,COc1ccc(OCC(O)Cn2c(Nc3cccc(C)c3)nc3c2c(=O)n(C)c(=O)n3C)cc1 (stereo unspecified),-5.8%,-14.6%,-5.3
-1.6%,Cc1ccc(NC(=O)CC2CS(=O)(=O)CC2CC(=O)Nc2ccc(C)c(C)c2)cc1C (stereo unspecified),-3.3%,8.7%,-19.1
-4.0%,Cc1ccc(S(=O)(=O)N/N=C/c2ccccc2O)cc1[N+](=O)[O-],-56.4%,10.5%,-2.8
-0.8%,O=C(CSc1ncnc2c1oc1ccccc12)Nc1cccc(C(F)(F)F)c1,1.9%,4.4%,-3.7
-0.1%,CN(C)/C=N/c1nc2nccc(-c3ccccn3)n2n1,3.6%,-14.1%,1.2
-1.6%,CC1(C)C2C/C(=N\O)C(C)(/[N+]([O-])=C/c3cccc([N+](=O)[O-])c3)CC21 (stereo unspecified),-13.0%,0.0%,-0.1
2.0%,COc1ccc(CCNC(=O)CN2CCOc3ccccc32)cc1OC,-5.1%,-2.0%,7.1
2.0%,CC(C)c1ccc(/C=N/NC(=O)CN(c2cccc(Cl)c2Cl)S(C)(=O)=O)cc1,-3.0%,1.1%,-10.9

Five of the entries above in order of their number in miR-21 FLuc, ascending.
Rango complex inh,smiles,miR-21 FLuc,Rango dissoc inh,GLA inh pH 4.5
-2.5%,O=C(NNC(=O)C1C2C=CC(C2)C1C(=O)O)c1ccccc1 (stereo unspecified),-57.4%,-4.8%,.
0.3%,COc1cc(C2c3c(-c4cc(Cl)c(C)cc4O)n[nH]c3C(=O)N2Cc2cccnc2)ccc1O (stereo unspecified),-29.3%,-7.3%,-0.1
1.1%,CC(Sc1nncn1C)C(=O)Nc1ccc(Cl)cn1 (stereo unspecified),-6.6%,-9.3%,-5.2
-4.2%,C#CCOC(=O)c1ccccc1C(=O)OCC#C,-3.5%,6.3%,5.7
0.8%,Cn1c(=O)[nH]c(=O)c2c1nc(Br)n2CCC(=O)c1ccccc1,-0.8%,-8.7%,-8.0

Other records follow.
Rango complex inh,smiles,miR-21 FLuc,Rango dissoc inh,GLA inh pH 4.5
?,O=C1S/C(=C\c2ccc(N3CCOCC3)o2)C(=O)N1Cc1c(F)cccc1Cl,-8.5%,-23.1%,3.7
0.9%,CN(CC(=O)Nc1ccc(F)c(F)c1F)C1CCCCC1,-6.8%,0.8%,1.9
-0.5%,CCN(Cc1cnn(C)c1)C(=O)c1cc(COc2ccc(F)cc2F)on1,-35.5%,-3.2%,5.5
-0.9%,CCOC(=O)c1c(NC(=S)NC(C)=O)sc(C)c1C,-9.7%,10.9%,5.7
-4.5%,Oc1ccc(Cc2ncc(C(F)(F)F)cc2Cl)cc1,1.7%,2.3%,-10.2
0.3%,Cc1ccn(C(C)CC(=O)N2CCc3ccccc32)n1 (stereo unspecified),-2.6%,-2.1%,.
-1.8%,Cn1ccnc1C(=O)c1ccc(N)cc1,-0.4%,28.2%,.
-1.8%,CNC(=O)/C=C1\NC(C)(C)Cc2c1ccc1ccccc21,-0.9%,-16.1%,-0.3
-2.4%,CC(C)Cn1c(-c2ccco2)n[nH]c1=S,0.2%,17.1%,0.4
-0.3%,O=C(O)CCCN1C(=O)c2ccccc2Sc2ncccc21,5.8%,5.2%,.
-2.7%,CCCCN(C)C(=O)c1coc(=O)c2ccccc12,-1.8%,-7.4%,-3.0
0.5%,CC(C)c1nnc(SCC(=O)Nc2ccc3c(c2)OCCO3)n1C,-1.2%,0.6%,.

Copied from the list.
Rango complex inh, CCOC(=O)c1c(NC(=S)NC(C)=O)sc(C)c1C reads -0.9%
miR-21 FLuc, CN(CC(=O)Nc1ccc(F)c(F)c1F)C1CCCCC1 reads -6.8%
Rango dissoc inh, CNC(=O)/C=C1\NC(C)(C)Cc2c1ccc1ccccc21 reads -16.1%
Rango complex inh, CCCCN(C)C(=O)c1coc(=O)c2ccccc12 reads -2.7%
Rango dissoc inh, Cn1ccnc1C(=O)c1ccc(N)cc1 reads 28.2%
